# D2 potentiator: Beta-Arrestin HTS for Positive Allosteric Modulators of the Human D2 Dopamine Receptor: Potentiators; D(2) dopamine receptor (Homo sapiens), P14416; DiscoveRx D2 beta-arrestin cells, luminescence, 90 min; 100% = 57 uM dopamine signal; potentiation, % (test concentration not listed); 360,000 tested, 0.23% active; active = potentiation of 50% or more; inconclusive = 30% to 50%; inactive = 30% or less;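 further: compound concentration not given in the record; tested on top of an EC20 dose of dopamine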
#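 PathHunter beta-arrestin assay in DiscoveRx D2 cells. Compounds were added with an EC20 of dopamine (50 nM final) for 90 min at 37 deg C. Luminescence was read 1 h after detection reagent, with 57 uM dopamine as the EC100 control.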
# Menin-MLL FL inh: qHTS Assay for Inhibitors Targeting the Menin-MLL Interaction in MLL Related Leukemias: Competition With Fluorescein Labeled MLL-derived Peptide; Fluorescence polarization, fluorescein-MLL peptide displacement from menin; FP activity change, % at 61.4 µM; 290,000 tested, under 10 active; AID 1766, 2009; inconclusive = falling polarisation curve, or a change in total fluorescence; inactive = total fluorescence flat and polarisation flat or rising; no compound was filed as active; the % refers to the polarisation; negative = inhibition;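 further: % of control where 0% means no effect; inhibitors lower the polarisation; unlabelled MLL peptide was the positive control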
# TRPV1 PAM: HTS Assay for Compounds that Act as Potentiators of the Vanilloid Receptor 1. potentiation, % at 8.33 µM. TRPV1-expressing cells, Fluo-8 calcium influx, capsaicin EC20 potentiation; host cell line not named in the record; control for the full effect not named in the record. 320,000 tested, 0.02% active. Transient receptor potential cation channel subfamily V member 1 (Homo sapiens), Q8NER1; active means potentiation above 80%; inconclusive means 30% to 80%; inactive means below 30%; further: 0% is about no effect
# Target sequence (Q8NER1 whole entry, looked up): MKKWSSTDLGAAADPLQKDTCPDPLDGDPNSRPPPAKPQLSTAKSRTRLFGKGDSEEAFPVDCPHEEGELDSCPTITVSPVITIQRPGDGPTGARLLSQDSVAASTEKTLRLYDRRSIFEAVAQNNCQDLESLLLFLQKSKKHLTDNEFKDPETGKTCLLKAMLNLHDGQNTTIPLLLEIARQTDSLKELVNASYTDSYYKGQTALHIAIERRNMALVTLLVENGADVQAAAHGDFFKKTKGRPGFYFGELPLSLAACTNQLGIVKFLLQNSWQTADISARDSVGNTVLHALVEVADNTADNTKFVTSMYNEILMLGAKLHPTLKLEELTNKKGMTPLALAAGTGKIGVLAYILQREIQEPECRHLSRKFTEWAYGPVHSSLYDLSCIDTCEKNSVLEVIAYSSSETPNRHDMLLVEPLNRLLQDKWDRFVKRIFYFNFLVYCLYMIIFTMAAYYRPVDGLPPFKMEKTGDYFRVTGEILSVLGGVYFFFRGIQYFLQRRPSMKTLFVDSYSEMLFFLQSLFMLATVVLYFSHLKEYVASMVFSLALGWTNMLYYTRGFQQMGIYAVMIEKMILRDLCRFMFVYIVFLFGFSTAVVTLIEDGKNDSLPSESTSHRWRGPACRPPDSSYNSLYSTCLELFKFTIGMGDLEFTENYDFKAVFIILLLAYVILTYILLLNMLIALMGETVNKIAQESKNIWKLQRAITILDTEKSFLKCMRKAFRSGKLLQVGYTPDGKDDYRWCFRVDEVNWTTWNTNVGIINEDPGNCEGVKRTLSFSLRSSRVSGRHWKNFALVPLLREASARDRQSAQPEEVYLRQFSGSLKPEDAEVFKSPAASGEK
#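 Cells expressing TRPV1 were dye-loaded with Fluo-8 and read kinetically: 10 s baseline, 3 min after compound (agonist portion), then 2 min after EC20 capsaicin (allosteric enhancer portion). Calcium-bound dye fluorescence at 480/520 nm.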
# gsp antag: qHTS for Antagonists of gsp, the Etiologic Mutation Responsible for Fibrous Dysplasia/McCune-Albright Syndrome: qHTS; 340,000 tested, 0.4% active; Potency, µM (titrated, usually from 76.9 µM), for inactives: at the highest dose activity change, negative = inhibition, actives largely listed as inhibitors; gsp-mutant cells, cAMP HTRF, 30 min; control for the full effect not named in the record; active = falling curve of any shape with a large fitted effect; inconclusive = falling curve, mostly with a smaller effect; inactive = flat or rising curve; cell line not stated here;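 further: intracellular cAMP measured with PDE inhibitor Ro 20-1724 present during compound exposure; potency means the concentration at half of the fitted maximal effect; on the % scale 0 is the no-effect control and ±100 the full control effect; nearly all actives have a fitted effect of over 65% in size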
#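 HTRF cAMP measurement after 30 min RT detection following 30 min, 37C compound treatment alongside […] (added as 300 uM solution) in G418-selected cells seeded at 2000/well and grown 16–24 h.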
# gsp ag: qHTS for Agonist of gsp, the Etiologic Mutation Responsible for Fibrous Dysplasia/McCune-Albright Syndrome: qHTS; Potency, µM (titrated, usually from 76.9 µM), for the others: at the highest dose activation (cAMP increase), hits mostly activators; 340,000 tested, 0.13% active; gsp mutant cells, cAMP HTRF, 30 min; control for the full effect not named in the record; active = well fitted activation curve with a large enough effect; inconclusive = small, poorly fitted or top-dose-only effect, or another doubt; inactive = no such curve, though single readings can be large or run the other way; cell line not stated here;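 further: phosphodiesterase inhibitor Ro 20-1724 added with compounds to block cAMP breakdown; potency means the concentration at half of the fitted maximal effect; nearly all actives have a fitted effect of over 60% in size; about a fifth of the inactives were tested at one dose only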
#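 Cells in DMEM/10% FBS with G418 were pretreated with compounds in DMSO plus […] (300 uM stock) for 30 min at 37C. cAMP was measured by HTRF (cAMP-d2 plus anti-cAMP antibody-K) after 30 min at room temperature.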
# Sfp PPTase inh: qHTS Assay for Inhibitors of Bacillus subtilis Sfp phosphopantetheinyl transferase (PPTase). Potency, µM, inactives show max response, negative = inhibition, usual class: inhibitors. Biochemical Sfp PPTase activity, qHTS. AID 1490, 2009. 310,000 tested, 3.5% active. 4'-phosphopantetheinyl transferase ffp (Bacillus subtilis), Q9F4F7; active means well fitted inhibition curve with a large enough effect; inconclusive means small, poorly fitted or top-dose-only effect, or another doubt; inactive means no such curve, though single readings can be large or run the other way;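 further: the enzyme is Sfp with the accession as filed and its product quenches rhodamine fluorescence; potency means the concentration at half of the fitted maximal effect; 0% = enzyme reaction without inhibitor and -100% = no enzyme wells; top concentration of the series not given in the record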
#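 After 15 min at room temperature with compound, 15 nM Sfp received 5 uM rhodamine-CoA plus 12.5 uM BHQ-2-ybbR (50 mM Hepes pH 7.6, 10 mM MgCl2). Rate came from the fluorescence difference over 30 min, ex 525/em 598 nm.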
# ClpP mod: qHTS Assay for Activators of ClpP; 340,000 tested, 1.9% active; ATP-dependent Clp protease proteolytic subunit (Bacillus subtilis (strain 168)), P80244; Potency, µM (top dose mostly 57.5 µM), for the others: top-dose activity change, negative = active; AID 651965, 2013; purified B. subtilis ClpP, FRET peptide cleavage, 20 min; active = well fitted falling curve with a large enough effect; inconclusive = small, poorly fitted or top-dose-only effect; inactive = no such curve, though single readings can be large or run the other way; further: potency means the concentration at half of the fitted maximal effect; the source files actives as falling curves though it sought activators and does not explain the sign; nearly all actives have a fitted effect of over 65% in size; many hits overshoot -100%
# Target sequence (P80244 whole entry, looked up): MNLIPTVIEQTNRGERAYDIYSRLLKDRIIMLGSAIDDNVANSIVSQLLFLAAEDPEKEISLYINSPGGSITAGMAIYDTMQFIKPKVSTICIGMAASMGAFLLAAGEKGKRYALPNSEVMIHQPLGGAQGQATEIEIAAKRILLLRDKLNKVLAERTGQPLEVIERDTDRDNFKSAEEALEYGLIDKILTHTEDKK
#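 Purified B. subtilis ClpP, 10 microg/mL final in Tris/HCl pH8 with KCl, BSA, glycerol and Tween-20, cleaved an Abz/nitrotyrosine-quenched decapeptide. Fluorescence (ex 320, em 430) was read at 0 and 20 min at room temperature. Delta was normalized to 5.8 microM ADEP and DMSO/no-enzyme controls.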
# An asterisk follows results filed as active; ? = inconclusive; / = no result given; & = joins results of further samples; [ ] = another dose, or the depositor's remark. Rows are unselected. Share with any hit: about 5.1%.
SMILES,D2 potentiator,Menin-MLL FL inh,TRPV1 PAM,gsp antag,gsp ag,Sfp PPTase inh,ClpP mod
CC(=O)c1cccc(NC(=O)c2cc(S(=O)(=O)N3CCCCC3)ccc2N2CCOCC2)c1,0,/,/,/,3%,/,-1.6%
C[C@H](NC(=O)c1nc[nH]c1C(=O)NCc1ccccc1)C(=O)OCc1ccccc1,-1,-2.7,8,11µM*,-41%[inhibitor],-4%,0.6%
CCCn1nnc(NC(=O)c2cccc(OCc3ccccc3)c2)n1,-28,3.3,0,?,-4%,7%,-4.3%
CCN1CCN(Cc2ccc(NC(=O)c3ccc(C)c(NC(=O)C(=O)c4c[nH]c5ccccc45)c3)cc2C(F)(F)F)CC1,-3&-60&-3,6.4&-1.3,4&-14,-3%&7%,-46%,50µM*,-6.8%&-6.4%&-3.5%
COCCN(CCOC)C(=S)Nc1cc(S(=O)(=O)N(C)C)ccc1C,-5,-0.2,-1,5%,19%,6%,/
Cc1nc2ccc(NC(=O)c3ccc(C)c(S(=O)(=O)N4CCOCC4)c3)cc2s1,4,/,-3,-14%,-10%,/,-17%
COc1ccc(NC(=S)N2CCC(Cc3ccccc3)CC2)cc1,5,/,-3,-13%,-36%[inhibitor],-4%,-0.1%
CCN(C(=O)CN1C(=O)S/C(=C\c2ccccc2OC)C1=O)C1CCS(=O)(=O)C1 (stereo not given),-6,-4.1,-8,0%,-32%[inhibitor],7%,-2.1%
O=Cc1nc(-c2ccc(Cl)cc2)n2ccccc12,-20,0.0,-1,15%,25%,7%,-15%
CCNc1oc(-c2ccccc2F)nc1S(=O)(=O)c1ccccc1,-9,/,-4,-2%,-4%[15.4 µM],-9%,-4.6%
CC12CC(NC(=O)N1CCc1ccccc1)c1ccccc1O2 (stereo not given),-1,1.2,3,-23%,21%,-21%,-0.3%
Cc1noc(C)c1S(=O)(=O)N(C)C[C@H]1Oc2c(NC(=O)Nc3ccc4c(c3)OCO4)cccc2C(=O)N([C@H](C)CO)C[C@@H]1C,-5,/,/,-4%,/,/,-3.1%
Clc1cccc(N2CCN(c3ncnc4nc[nH]c34)CC2)c1,0,3.0,/,15%,-4%[15.4 µM],10%,/
COC(=O)Cn1c2c(c3cc(C)ccc31)CCCC2NC(C)c1ccccc1 (stereo not given),8,2.3,-1,-31%,-6%[15.4 µM],-13%,1.2%
COCCNC(=O)c1ccc2c(c1)S(=O)(=O)c1ccccc1C2=O,9,/,/,13%,-2%,/,0.4%
C1=C(CCNc2ncnc3nc[nH]c23)CCCC1,0,1.5,-15,-7%,-39%[inhibitor],-16%,0.3%
O=C(Nc1ccc(Cl)cn1)c1cnn2cccnc12,-6,5.9,-24,0%,22%,18%,-1.5%
COCCN(Cc1nc2ccccc2c(=O)[nH]1)C(=O)COc1ccccc1-c1ccccc1,-4,/,4,?,-1%[15.4 µM],/,/
COC(=O)c1ccccc1N/C=C1\CCc2c(c(C)nn2-c2ccccn2)C1=O,26,3.5,-1,8%,-20%,45µM*,?
COc1cc(OC)c(OC)cc1/C=N/Nc1ncnc2c1[nH]c1ccc(C)cc12,-4,2.0,-19,13%,-4%[15.4 µM],-6%,/
C=CCn1c(SCC(=O)c2c(N)n(C3CC3)c(=O)[nH]c2=O)nnc1-c1ccc(OC)cc1,-67,/,15,13%,-32%[15.4 µM],/,/
CCCOc1ccccc1C1CC(=O)NC(C)=C1C(=O)OCC(C)C (stereo not given),-3,1.9,-1,-14%,11%,19%,?
COc1ccc(/C=N/NC(=O)c2nonc2C)cc1,-29,10,16,10%,13%,21%,-2.6%
CSc1nc2ccc3nc(NC(=O)c4cccs4)sc3c2s1,12,0.0,12,1%,2%,15%,-18%
O=C(CCn1ccc2ccccc21)Nc1ccc(N2CCOCC2)cc1,8,4.1,-25,-5%,-5%,7%,-9.3%
# The list goes on:
SMILES,D2 potentiator,Menin-MLL FL inh,TRPV1 PAM,gsp antag,gsp ag,Sfp PPTase inh,ClpP mod
Cc1ccc(SCc2nc3ccccc3n2CC(=O)Nc2c(C)cccc2C)cc1,-7,6.1,-6,3%,-4%,-18%,-7.9%
Cn1ncc2c(N3CCOCC3)ncnc21,6,-2.7,1,9%,-2%,24%,-0.3%
CC(=O)OC1CC(C)(C)N(OC(=O)CCCN2C(=O)c3ccccc3C2=O)C(C)(C)C1,4,0.1,3,-10%,4%,-2%,-0.8%
Cc1ccc(S(=O)(=O)N(CC(=O)NCCSCc2ccco2)c2cc(C)ccc2C)cc1,-15,/,/,-23%,1%,/,1.6%
CC(=O)Nc1ccc(S(=O)(=O)N2CCOCC2)cc1,-6,0.6,5,10%,-75%[inhibitor],22%,-0.2%
O=C(C1=C(O)C(=O)N(CCOCCO)C1c1cccs1)c1cccs1 (stereo not given),-11,-2.1,15,10%,1%,-21%,0.6%
C=CCn1c(O)c(N=NC(=O)c2ccc3c(c2)OCO3)c2ccccc21,-6,-0.3,-3,13%,18%,2%,-1.7%
CC(=O)Nc1ccc(NC(=O)C(C)OC(=O)c2ccccc2C(=O)c2ccc(Cl)c([N+](=O)[O-])c2)cc1 (stereo not given),-14,6.8,-3,-20%,21%,1%,-1.7%
CCN(CC)S(=O)(=O)c1cc(NS(=O)(=O)c2cccs2)ccc1C,-16,/,/,-6%,0%[15.4 µM],/,-0.5%
Cc1cc(C)cc(NC(=O)CS(=O)(=O)c2ccccc2)c1,-3,4.9,17,6%,-26%,4%,1.2%
CCc1nc(SCC(=O)N2CCN(c3ccccc3)CC2)c2c(=O)n(C)c(=O)n(C)c2n1,/,-1.9,-4,/,/,-9%,/
COc1ccccc1NS(=O)(=O)c1cc(N=N/C(C(=O)Nc2ccc(Cl)cc2)=C(/C)O)ccc1C,-2,/,/,5%,-9%,/,-0.1%
COc1cc(NC(=S)NCCc2ccc(S(N)(=O)=O)cc2)c(OC)cc1Cl,5,-1.1,-6,-9%,-25%,16µM*,1.6%
CC(C)(C)c1ccc(OCCn2ccccc2=O)cc1,-5,-6.2,-10,-7%,7%,10%,-2.3%
Cn1nc(C(C)(C)C)cc1C(=O)NNC(=O)c1cccc(Cl)c1,-4,0.2,-4,-5%,-4%[15.4 µM],13%,/
CCc1ccc(C(=O)Cc2cc3cccc(OC)c3oc2=O)cc1,0,12,1,-18%,8%,1%,-6.6%
CCOC(=O)N1CCN(C(=O)c2ccc(SC)cc2OC)CC1,-3,-3.7,-14,5%,-48%[inhibitor],17%,0.7%
COc1ccc(Cc2c(O)nc(SC)n(C(C)=O)c2=O)cc1,1,-1.5,-1,4%,-76%[inhibitor],21%,?
O=C(CCl)Nc1ccccc1C(=O)NCc1ccccc1,-20,0.5,9,4%,-35%[inhibitor],3%,-2.2%
NS(=O)(=O)c1ccc(NC(=O)CCC(=O)N2CCOCC2)cc1,-1,-5.0,-6,12%,-1%[15.4 µM],9%,/
CC(=O)c1c(C)nc2sc3c(=N)n(N)cnc3c2c1-c1ccc(Cl)cc1,-22,-1.1,-9,33%,12%,?,-2.0%
COC(=O)c1cnn(-c2ccc(F)cc2F)c1/C=N/NC(N)=S,-16,0.5,13,3%,3%,-2%,-0.9%
CC(C)(C)OC(=O)N1CCN(C(=O)c2nc[nH]c2C(=O)N2CCN(c3ccccc3)CC2)CC1,-6,/,-2,-5%,/,/,-0.2%
CCc1c(Nc2ccccc2C)nc(N)[nH]c1=O,-4,/,/,7%,-12%,/,/
O=C(c1ccccc1)c1cccn1CC(=O)N1CCN(C2CCCCC2)CC1,-12,3.4,0,4%,-13%,10%,0.6%
# (next part)
SMILES,D2 potentiator,Menin-MLL FL inh,TRPV1 PAM,gsp antag,gsp ag,Sfp PPTase inh,ClpP mod
O=C(NCCN1CCCC(O)C1)c1cc(COc2c(F)cccc2F)on1 (stereo not given),-10,2.0,4,16%,-17%,23%,10.0%
O=c1c2ccccc2nc2c3ccccc3cnn12,-21,-1.0,-1,3%,2%,7%,?
CCN1C(=O)/C(=C\N(C)C)c2ccccc21,-7,-0.5,-1,3%,24%,-7%,-2.5%
CCCC(=O)Nc1nc2ccc(NC(=O)c3ccc(Br)o3)cc2s1,-6,2.5,7,-12%,-11%,6%,?
CCOC(=O)c1cc(C)n(CCCN2CCOCC2)c1C,-30,1.2,10,11%,0%,7%,-2.2%
CCCn1c(SCC(=O)N2CC(=O)Nc3ccccc32)n[nH]c1=O,-8,/,/,8%,20%,/,/
CCC(C(=O)OCC(=O)Nc1c(C)n(C)n(-c2ccccc2)c1=O)c1ccccc1 (stereo not given),-12,8.5,-39,3%,5%,16%,1.4%
O=C(NCc1ccccc1)NC1CC2CCC(C1)N2Cc1ccco1 (stereo not given),-30,1.9,-17,18%,-1%,13%,1.4%

# Compound activity (PubChem BioAssay)
